Bioassay records deposited in PubChem BioAssay by National Center for Advancing Translational Sciences (NCATS).
miR-21 reporter: qHTS Assay for Modulators of miRNAs and/orActivators of miR-21 | HeLa miR-21 FLuc reporter, luciferase, 48 h | Potency, µM (titrated, usually from 38.3 µM), inactives show top-dose reporter change, positive = more light | 340,000 tested, under 10 active | AID 2288, 2010; active = well fitted rising curve with a large enough effect; inconclusive = small, poorly fitted or top-dose-only effect; inactive = no such curve, though single readings can be large or run the other way;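 note: % of control where 0% means no effect; miR-21 action dims this reporter so a rising signal means less miR-21 action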
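HeLa miR-21-FLuc reporter line, endogenous miR-21; 2000 cells/well in DMEM/10% FBS; compound titration up to ~40uM final, 48 h, 37 degree Celsius; luciferase detection reagent, 15 min lysis, CCD luminescence.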
Rango complex inh: qHTS Assay for Inhibitors of Rango (Ran-regulated importin-beta cargo) - Importin beta complex formation. Rango CFP/YFP FRET sensor + importin beta, 45 min. Potency, µM (top dose mostly 92.2 µM), without a hit: at the highest dose inhibition of complex formation. 340,000 compounds, 0.031% hits. AID 540263, 2011; active = rising FRET ratio curve, often small or poorly fitted; inconclusive = mostly compound fluorescence or quenching in the first reads; inactive = flat curves in all reads;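 note: potency is the fitted concentration of half-maximal effect; 0% = DMSO wells and 100% = buffer wells lacking importin beta; nearly all actives have a fitted effect of over 15% in size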
Target sequence (Q14974 whole entry, looked up): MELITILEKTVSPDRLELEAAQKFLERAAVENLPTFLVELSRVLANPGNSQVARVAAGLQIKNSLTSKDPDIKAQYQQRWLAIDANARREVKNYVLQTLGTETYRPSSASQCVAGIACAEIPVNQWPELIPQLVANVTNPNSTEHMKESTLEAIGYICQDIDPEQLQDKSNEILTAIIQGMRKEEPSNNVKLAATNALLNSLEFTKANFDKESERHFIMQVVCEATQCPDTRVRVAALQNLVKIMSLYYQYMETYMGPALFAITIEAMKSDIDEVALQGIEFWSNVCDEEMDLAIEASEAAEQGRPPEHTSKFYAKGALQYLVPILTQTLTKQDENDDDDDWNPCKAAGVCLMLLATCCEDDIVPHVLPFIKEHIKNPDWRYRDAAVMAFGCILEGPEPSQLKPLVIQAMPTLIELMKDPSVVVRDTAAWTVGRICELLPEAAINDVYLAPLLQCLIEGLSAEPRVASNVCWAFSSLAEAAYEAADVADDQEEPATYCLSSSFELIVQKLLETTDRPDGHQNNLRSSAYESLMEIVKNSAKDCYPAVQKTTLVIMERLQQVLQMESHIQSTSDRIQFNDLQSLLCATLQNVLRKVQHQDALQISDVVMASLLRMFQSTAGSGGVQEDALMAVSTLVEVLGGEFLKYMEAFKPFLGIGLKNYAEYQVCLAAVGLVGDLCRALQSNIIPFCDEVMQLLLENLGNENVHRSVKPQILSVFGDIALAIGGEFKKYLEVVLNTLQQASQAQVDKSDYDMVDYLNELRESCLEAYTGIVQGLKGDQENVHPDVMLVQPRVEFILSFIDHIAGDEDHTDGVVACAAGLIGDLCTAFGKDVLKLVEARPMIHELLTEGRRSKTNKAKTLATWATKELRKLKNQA
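Inhibition scored from the CFP 486 nm/YFP 530 nm FRET ratio 45 min after adding 0.125 microM importin beta to 50 nM Rango biosensor preincubated 5 min with compound (room temperature, PBS with DTT, Tween-20, BSA). No-importin wells as positive control.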
Rango release inh: qHTS Assay for Inhibitors of RanGTP induced Rango (Ran-regulated importin-beta cargo) - Importin beta complex dissociation. Potency, µM (doses to about 46.1 µM), for the others: at the top dose activity change, negative = inhibition. Snurportin-1 (Homo sapiens) + GTP-binding nuclear protein Ran (Homo sapiens) + Importin …. Biochemical FRET Rango-importin beta, RanGTP-induced dissociation. 340,000 compounds, 0.071% hits; active means falling FRET ratio curve, often poorly fitted, with flat reads before Ran was added; inconclusive means other falling curves, or compound fluorescence or quenching; inactive means flat or rising ratio curve;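 note: potency is the fitted concentration of half-maximal effect; % of control where 0% means no effect; nearly all actives have a fitted effect of over 45% in size; -100% = wells without RanGTP and RCC1; the record marks most hits as doubtful in a second field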
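Recombinant Rango FRET biosensor (EYFP–snurportin 1 IBB–cerulean CFP10) at 0.1 uM premixed with 0.25 uM importin beta in PBS, 1 mM DTT, 0.02% Tween-20, 0.1% BSA. Compound added 5 min; RanGTP-RCC1 (0.6 uM Ran, 2 mM GTP, 0.2 uM RCC1) then triggers release, read at 45 min.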
GLA inh pH 4.5: qHTS Assay for Inhibitors of Human alpha-Galactosidase at pH 4.5 | Alpha-galactosidase A (Homo sapiens), P06280 | purified enzyme, 4-MU-alpha-Gal fluorescence, pH 4.5 | activity change, negative = inhibition, % at 105 µM | 230,000 tested, under 10 active | AID 1467, 2008; inconclusive = small, poorly fitted or top-dose-only inhibition, or a rising curve; inactive = flat fitted curve, though single readings scatter; no compound was filed as active;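 note: 0% = full activity with enzyme and -100% = basal without enzyme; dose as in the result columns while the protocol names 77 µM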
* marks the source's active call; other numbers are inactive results; ? = inconclusive; . = not tested or not shown.

A first look:
| miR-21 reporter | Rango complex inh | canonical_smiles | Rango release inh | GLA inh pH 4.5 |
| --- | --- | --- | --- | --- |
| . | 1.0% | C=CCOC(=O)C1=C[C@H](C(C)(C)C)[C@@H](CCCO)[C@H](OCC)O1 | -10% | . |
| . | 4.0% | COc1ccccc1NS(=O)(=O)c1cccc(C(=O)NCC(c2cccs2)N2CCOCC2)c1 (centres undefined) | 6% | . |
| 5% | 0.7% | CC(=O)c1ccc(N2CCN(CC(=O)Nc3ccc4c(c3)OCCO4)CC2)cc1 | 0% | . |
| 9% | -1.0% | O=C(NNC(=S)NC1CCCCC1)c1ccccc1O | 15% | -1 |

Results, previewed entries included:
| miR-21 reporter | Rango complex inh | canonical_smiles | Rango release inh | GLA inh pH 4.5 |
| --- | --- | --- | --- | --- |
| . | 1.0% | C=CCOC(=O)C1=C[C@H](C(C)(C)C)[C@@H](CCCO)[C@H](OCC)O1 | -10% | . |
| . | 4.0% | COc1ccccc1NS(=O)(=O)c1cccc(C(=O)NCC(c2cccs2)N2CCOCC2)c1 (centres undefined) | 6% | . |
| 5% | 0.7% | CC(=O)c1ccc(N2CCN(CC(=O)Nc3ccc4c(c3)OCCO4)CC2)cc1 | 0% | . |
| 9% | -1.0% | O=C(NNC(=S)NC1CCCCC1)c1ccccc1O | 15% | -1 |
| -25% | ? | N#CC1=C(N)Nc2nc3ccccc3n2C1c1ccc(Cl)cc1 (centres undefined) | -17% | 5 |
| 2% | -1.1% | COC(=O)C1Cc2c([nH]c3ccccc23)C(C(C)C)N1 (centres undefined) | -14% | . |
| . | -0.3% | Cc1ccc(C)c(OCCC(=O)N(C)CC(=O)Nc2c(C)cccc2C)c1 | 4% | . |
| -6% | 0.8% | Cc1cc(C(=O)N(C)CC(=O)Nc2ccccc2C(F)(F)F)c(C)o1 | 1% | -12 |
| 1% | -1.8% | Cc1ccc(-n2nc3c(=O)n(CCCC(=O)NCc4cccc(F)c4)nc(C)c3c2C)cc1 | -1% | . |
| . | -0.4% | CN(CCc1ccccc1)C(=O)c1cccc(NC(=O)Cc2cccc(NC(=O)C3CCN(C(=O)C4CC4)CC3)c2)c1 | 4% | . |
| . | 7.0% | CCN1C(=O)[C@@H]2[C@@H](c3ccc(-c4ccc(C(C)=O)cc4)c(OC)c3)N3CCCC[C@@]3(C(=O)OC)[C@@H]2C1=O | 7% | . |
| -6% | -2.2% | CN(C)CCNC(=S)Nc1cccc(Cl)c1 | 21% | 16 |
| -4% | -2.6% | CN(CCO)c1nc2c(c(=O)n(Cc3ccc(Cl)cc3)c(=O)n2C)n1C | 1% | . |
| ? | 1.6% | Cc1ccc(-c2c[n+]3c(n2-c2ccccc2)CCC3)cc1 | 11% | 0 |
| -1% | -0.2% | COc1cc(CC(=O)N/N=C/c2ccc([N+](=O)[O-])cc2)c([N+](=O)[O-])cc1OC | -7% | -8 |
| -55% | -1.4% | CC1CCc2nc3sc4c(c3c(N)c2C1)CCCC4 (centres undefined) | -4% | 1 |
| 5% | -3.2% | CCn1cc(C(=O)N2CCN(c3ccccn3)CC2)c(=O)c2cc(S(=O)(=O)N3CCC(C)CC3)ccc21 | -3% | 1 |
| . | -2.6% | COc1cccc(CCc2nc3ccccc3c(=O)n2N)c1 | -6% | . |
| . | -1.8% | COc1cccc(NC(=O)CN(C)C(=O)c2ccccc2-c2nc3ccccc3s2)c1 | 0% | . |
| -3% | 3.2% | COc1ccc(N2CCN(C(=O)CC34CC5CC(CC(C5)C3)C4)CC2)c([N+](=O)[O-])c1 | -15% | -6 |
| -47% | 3.8% | Cc1cc(C(=O)COc2ncnc3sccc23)c(C)n1C | -13% | -11 |
| -8% | -3.8% | O=C(c1cc2cc(Cl)ccc2[nH]1)N1CCc2ccccc2C1 | 0% | . |
| 2% | 0.7% | CC(=O)Nc1ccnc(-c2cccnc2)n1 | -7% | -1 |
| 0% | -1.4% | CCC1(C)CC2(CCCN(CCC(=O)c3ccccc3)C2)CCO1 (centres undefined) | 2% | 2 |
| 1% | -2.6% | CCOc1ncccc1C(=O)Nc1cc(S(=O)(=O)N2CCOCC2)ccc1N1CCCC1 | 26% | 10 |
| -7% | -0.1% | CC[n+]1c(/C=C/c2cc([N+](=O)[O-])ccc2O)ccc2ccccc21 | -14% | . |
| -6% | -0.1% | CCC1SC(=Nc2cccc(C)c2)NC1=O (centres undefined) | 2% | . |
| -6% | -0.3% | CC(=O)c1ccc(NC(=S)N2CCCC(C(F)(F)F)C2)cc1 (centres undefined) | 0% | 6 |
| -13% | -2.8% | O=C(COc1ccc2oc(-c3ccccc3)cc(=O)c2c1)Nc1ccccc1 | 11% | 3 |
| -7% | -1.9% | COc1ccc(CCNC(=O)c2cc(-c3ccncc3)nc3ccc(S(=O)(=O)N4CCOCC4)cc23)cc1OC | 0% | . |
| -7% | -0.7% | CCOc1ccc(N(CC(=O)N2CCCCCC2)S(=O)(=O)c2ccc(F)cc2)cc1 | 29% | . |
| 0% | -0.7% | O=C(Cn1cnc2c(cnn2-c2ccccc2)c1=O)N1CCOCC1 | 1% | 5 |
| 4% | -1.8% | COC(=O)CCC(=O)Nc1ccc2oc3c(c2c1)CCCC3 | -1% | . |
| 0% | . | CCOC(=O)c1c(NC(=O)CSc2nnc(C)c(=O)[nH]2)sc(C)c1C | . | 4 |
| . | 3.0% | CCN(c1ccccc1)S(=O)(=O)c1ccc(C(=O)N2CCCC(C(F)(F)F)C2)cc1 (centres undefined) | 1% | . |
| 3% | 1.3% | CC1CCN(c2nc(-c3ccccc3)c(C#N)c(=O)[nH]2)CC1 | 1% | 6 |
| . | -0.3% | COc1ccc(C(=O)NNC(=O)CN(C)S(=O)(=O)c2ccc(Cl)cc2)c(OC)c1OC | -2% | . |
| . | -0.8% | O=S(=O)(c1ccc(Cl)cc1)N1CCC(n2cnc3cc(C(F)(F)F)ccc32)CC1 | 5% | . |
| -2% | ? | Cc1ccc(C)n1-c1nccc(-c2cccs2)n1 | ? | 10 |
| 3% | -3.7% | CN(C)S(=O)(=O)c1ccc(NC(=O)CCCNC(=O)c2ccc(Cl)cc2)cc1 | 1% | . |
| -7% | 3.0% | COc1cc(/C=C2/N=C(c3ccccc3F)OC2=O)cc(Cl)c1OS(C)(=O)=O | 12% | 10 |
| -3% | 2.0% | COc1ccc(-c2nc(NC(=O)Cn3cnnn3)sc2C)cc1 | -2% | 7 |
| -8% | 3.2% | COc1ccc(-n2ccnc2SCC(=O)Nc2ccccc2)cc1 | -16% | 0 |
| -17% | -1.7% | COc1ccc(N=c2ssnc2Cl)cc1 | -7% | 5 |
| -6% | -0.1% | Cc1ccc2cc(CN(CC3CCCO3)S(=O)(=O)c3cccc4nsnc34)c(=O)[nH]c2c1 (centres undefined) | -3% | 9 |
| 4% | 1.6% | Cc1c(CNC(=O)C2CCC(=O)N(CCc3ccccc3)C2)cnn1C (centres undefined) | -13% | . |
| . | -2.3% | C[C@H]1CCC[C@@]2(O[C@H](CCO)C[C@H](O)[C@H]2O)O1 | -19% | . |
| -22% | 4.6% | COC(=O)c1cc(O)c(OCc2ccccc2)c(O)c1 | 1% | -5 |
| . | ? | O=[N+]([O-])c1cc([N+](=O)[O-])c2cc(-c3cccnc3)[nH]c2c1 | -23% | . |
| -1% | ? | COC(=O)C1=CN(Cc2ccc(OC)c(OC)c2)C=C(C(=O)OC)C1c1cccc(F)c1 | 5.8µM* | . |

One compound at a time, from the list above. Screens in order: miR-21 reporter, Rango complex inh, Rango release inh, GLA inh pH 4.5
COC(=O)c1cc(O)c(OCc2ccccc2)c(O)c1 reads -22%, 4.6%, 1%, -5
COc1ccc(N2CCN(C(=O)CC34CC5CC(CC(C5)C3)C4)CC2)c([N+](=O)[O-])c1 reads -3%, 3.2%, -15%, -6
CN(CCO)c1nc2c(c(=O)n(Cc3ccc(Cl)cc3)c(=O)n2C)n1C reads -4%, -2.6%, 1%, .
C[C@H]1CCC[C@@]2(O[C@H](CCO)C[C@H](O)[C@H]2O)O1 reads ., -2.3%, -19%, .

Other entries:
| miR-21 reporter | Rango complex inh | canonical_smiles | Rango release inh | GLA inh pH 4.5 |
| --- | --- | --- | --- | --- |
| 19% | -1.2% | COc1ccc(CNS(=O)(=O)c2ccc3c(c2)CC(C)N3C(=O)C2CC2)cc1 (centres undefined) | 15% | . |
| 2% | 0.5% | O=C(c1ccc(F)cc1)N1CCN(C2=NS(=O)(=O)c3ccccc32)CC1 | ? | . |
| -7% | -3.7% | O=C(COC(=O)CN1C(=O)C2CC=CCC2C1=O)Nc1cc(C(F)(F)F)ccc1N1CCOCC1 (centres undefined) | 0% | -1 |
| 10% | ? | CCCSc1nc2sc3c(c2c(=O)n1-c1ccc(OC)cc1)CCN(C)C3 | -20% | . |
| -49% | -1.6% | CCSc1nnc(NC(=O)c2ccc(C)o2)s1 | -1% | 4 |
| 0% | 2.6% | CS(=O)(=O)c1ccc2nc(NC(=O)Cc3ccccc3)sc2c1 | 5% | -1 |
| -6% | ? | COc1ccc(Nc2c(-c3ccc(C)cc3)nc3cnccn23)cc1 | -18% | 1 |
| -10% | -0.1% | O=C(CN1CCN(Cc2ccc3c(c2)OCO3)CC1)Nc1ccc(F)cc1 | 1% | 3 |
| 1% | -5.0% | O=C1NCCN(Cc2c(F)cccc2Cl)C1CC(=O)N1CCCCO1 (centres undefined) | 15% | -2 |
| -4% | -1.2% | Cc1ccc(C)c(NC(=S)N2CCC(N(C)CC3CCCO3)CC2)c1 (centres undefined) | 11% | 7 |
| 4% | 3.1% | O=C1c2cccnc2C(=O)N1Cc1ccc(F)cc1S(=O)(=O)NCc1ccco1 | -15% | . |
| -3% | -2.6% | CC1=NN(C(=O)c2ccc(Cn3nc(C)c([N+](=O)[O-])c3C)o2)C(O)(C(F)(F)F)C1 (centres undefined) | -4% | 4 |
| -3% | -3.8% | COc1cc(OC)nc(-n2ncc(OC)c(Br)c2=O)n1 | 13% | 5 |
| 1% | 4.3% | CCOc1ncccc1C(=O)N=c1sccn1C | -1% | . |
| -1% | -1.2% | CCc1ccccc1NC(=S)N1CCN(c2ccccn2)CC1 | 15% | 1 |
| 18% | 2.6% | COc1ccc(-n2nnnc2-c2ccccc2)cc1 | 32% | -1 |
| -15% | 0.9% | O=C1CCCCC1Oc1ccc2ccc(=O)oc2c1 (centres undefined) | -2% | . |
| -33% | 0.2% | CCN=c1scc(-c2cccs2)n1/N=C/c1cc(OC)ccc1O | -1% | -4 |
| -13% | -0.1% | CCCc1nnc(NC(=O)c2cccnc2)s1 | 1% | -1 |
| -7% | 1.9% | Cc1ccc(OCCN2CCNCC2)c([N+](=O)[O-])c1 | -2% | -12 |
| -12% | -0.9% | CC(=O)CCC(=O)N1CCCC(N2CCN(c3cccc(Cl)c3)CC2)C1 (centres undefined) | 43% | . |
| . | 1.9% | CC(C)n1nccc1NC(=O)COC(=O)c1ccc(NC(N)=O)cc1 | 8% | . |
| -1% | -1.4% | Nc1ccc(N2CCCCC2)c(S(=O)(=O)Nc2ccccc2Cl)c1 | 1% | -21 |
| ? | -2.7% | COc1ccc(-c2cn[nH]c2-c2ccc(OCc3ccccc3)cc2O)cc1OC | 1% | -1 |
| . | 0.4% | COc1ccc2[nH]c3c(c2c1)CCN1C(=O)C(CC(=O)NCCc2ccccn2)C[C@H](C(=O)N2CCOCC2)[C@@]31C (some centres undefined) | -11% | . |
| -1% | -2.2% | CNC(=O)CSc1nnc(-c2cccs2)o1 | 12% | 11 |
| -10% | 5.9% | S=c1[nH]nc(C2CCCCC2)n1/N=C/c1ccccc1Br | -22% | . |
| 2% | ? | CC(C)N1CCc2c(sc(N)c2C#N)C1 | ? | 10 |
| -8% | 0.6% | Cc1ccc(/C=C2\CCCC3=C2NC(=S)NC3c2ccc(C)cc2)cc1 (centres undefined) | 3% | -9 |
| -47% | 0.0% | CC(C)(C)c1ccc(CNc2ccc([N+](=O)[O-])cn2)cc1 | -17% | -4 |

These rows are one share of the data. The share of hits here may be higher or lower than overall.
